Bioassay records from PubChem.
Calb biofilm kill: mixtures killing C. albicans biofilm. inhibition, % at 7.6 µM. C. albicans biofilm persisters + clotrimazole, fluorescence viability; primary screen in compound mixtures of four per well. hit rate 0.02% among 120,000. AID 1242;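 active = inhibition above 30.3% in the primary screen of four-compound pools, then above 30% when the compound was retested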;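 note: compounds exposed to preformed 24 h biofilms for 48 h; the number belongs to the whole pool; some results filed as inactive read as strong as hits; inactives centre near 12; 0% = biofilm with clotrimazole alone and 100% = kill control; retested singly at about 60 µM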
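Test system: C. albicans CAF4-2 wild-type biofilms; buffer or medium: RPMI/MOPS medium, pH 7.0; schedule: 24 h biofilm formation, then 48 h compound exposure, 37 °C; detection: Alamar Blue fluorescence; measure: percent inhibition of biofilm viability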
An asterisk follows results filed as active. This is a subset; the hit share may differ from the screen's.

SMILES	Calb biofilm kill
CC1CCCCN1C(=O)c1ccc(COc2ccc([N+](=O)[O-])cc2)o1 (centres undefined)	16.9
CC(C)NC(=O)c1cc2n(n1)C(C(F)(F)F)CC(c1ccco1)N2 (centres undefined)	17.8
O=C(c1cc2c(s1)CCCC2)N1CCN(c2ccccc2)CC1	6.6
CCCCn1c2ccc(F)cc2c2nnc(NN)nc21	13.8
Cc1oc(S(=O)(=O)N2CCCC2)cc1C(=O)Nc1ccc(F)cc1	10.6
CC1CCC/C(=N/NC(=O)c2ccccc2-n2cccc2)C1 (centres undefined)	10.0
Cc1cc(C)nc(/N=C(\N)N2CCCCC2)n1	7.0
CCN(CC)C(=O)c1nn(-c2ccccc2)c2c1C1CCC2(C)C1(C)C (centres undefined)	18.9
CC(NC(=O)CCn1c(=S)[nH]c2ccsc2c1=O)c1ccccc1 (centres undefined)	23.7
Cc1ccccc1C(=O)Nc1cccc(C(=O)N/N=C/c2cc(Cl)cc([N+](=O)[O-])c2O)c1	13.1
C/C(=N/NC(=O)c1ccccc1)c1ccc(NC(=O)C(F)(F)F)cc1	34.1
CC1(N(O)C=C2C=CC(=O)C=C2)CCCCC1=O (centres undefined)	5.8
CCCNC(=O)c1cc2nc(-c3ccccc3)cc(C(F)(F)F)n2n1	16.4
CC(SCC(=O)NC(C)C1CC2CCC1C2)C(=O)O (centres undefined)	6.0
CC(C)CN=CC1=C(O)c2ccccc2C1=O	18.4
CCOC(=O)C1=C(Nc2ccc(Cl)cc2)OCC1=O	-2.2
CC(C)C(=O)N1CCN(c2ccccc2NC(=O)c2ccc(C#N)cc2F)CC1	2.8
Cc1nn(Cc2ccccc2Cl)c(C)c1C(=O)NCCN1C(=O)S/C(=C\c2ccccc2)C1=O	6.7
CCc1ccc(N2CC(C(=O)NCc3ccco3)CC2=O)cc1 (centres undefined)	21.6
CCOc1ccc2nc(N/C(N)=N/S(C)(=O)=O)nc(C)c2c1	9.8
CCOC(=O)c1cc(CC)sc1/N=C/C1C(=O)CCCC1=O	3.8
Cn1c(=O)[nH]c(=O)c2c1nc(N1CCOCC1)n2CC(=O)c1ccccc1	-3.1
COc1ccc(/C=N/NC(=O)CNC(=O)C2COc3ccccc3O2)cc1OC (centres undefined)	12.5
Cc1cc(Cl)ccc1OCC(=O)NCCCn1ccnc1	17.9
CC1CCCC(NC(=O)COC(=O)Cc2ccc(Br)cc2)C1C (centres undefined)	4.6
(list continues)
SMILES	Calb biofilm kill
CC(C)(C)c1ccc(C(=O)Nc2ccc(F)cc2)s1	24.5
Cc1ccc(S(=O)(=O)N/N=C/c2cccc3nccnc23)cc1	16.3
CCOc1ccc(CN2C(=O)c3ccccc3C2=O)cc1C(=O)Nc1nnc(SCC)s1	11.4
CCCc1nc2ccccc2n1Cc1ccccc1OC	-0.2
CSc1sc(C(=O)N(C)C)cc1S(=O)(=O)C(C)C	16.3
O=C(Nc1cc(S(=O)(=O)Nc2ccc(Cl)cc2)ccc1O)c1ccc(S(=O)(=O)N2CCCCCC2)cc1	21.7
CCOC(=O)c1sc(N/N=C/c2ccccc2)nc1C	9.8
COCCN(C(=O)c1ccco1)c1nnc(-c2ccc(OC)c(OC)c2)s1	6.0
CCC(=O)NCCCCCCCCCNC(=O)CC	9.1
CCOc1cc(C(=O)NC)cc(Br)c1OC	11.8
Cn1cc(C(=O)N/N=C/C=C/c2ccccc2)ccc1=O	18.2
CCN1CCN(c2ccc(S(=O)(=O)N3CCCC3)cn2)CC1	23.2
CCOc1ccc(NC(=S)N(C)C)cc1	3.6
O=C(COc1ccc(Cl)cc1)NCc1nnc(SCC(=O)N2CCCC2)o1	7.6
CCOC(=O)C1(Cc2cccc(F)c2)CCN(C(=O)c2cnc(C)cn2)CC1	6.3
O=C(Cn1nc(C(F)(F)F)c2c1CCC2)Nc1ccccc1C(F)(F)F	7.6
COC(=O)c1ccc(NC(=O)CSc2nc3ncccc3[nH]2)cc1	8.1
COC(=O)C1=C(C)N(C)C(=S)N(C)C1c1ccc(OC)cc1 (centres undefined)	10.0
CC(=O)c1c(COC(=O)c2ccc(F)cc2)nc2ccccc2[n+]1[O-]	15.3
CCOC(=O)C1=C(C)C(c2cccc(Oc3ccccc3)c2)NC(=S)N1 (centres undefined)	14.9
O=C(NCCCN1CCOCC1)/C(=C/c1ccc(F)cc1)NC(=O)c1ccccc1	8.6
CN(C)c1nccc(NCc2ccccc2)c1C#N	29.9
C[n+]1c2n(c3ccccc31)N=C(c1ccc(-c3ccccc3)cc1)CS2	-6.7
COc1cc(OC)c(NC(=O)c2ccc(F)cc2)cc1Cl	-24.5
C/C(=N\NC(=O)C1CC1)c1ccc(N2CCOCC2)cc1	16.4

Some of these compounds in order of formula weight, falling:
SMILES	Calb biofilm kill
O=C(Nc1cc(S(=O)(=O)Nc2ccc(Cl)cc2)ccc1O)c1ccc(S(=O)(=O)N2CCCCCC2)cc1	21.7
O=C(NCCCN1CCOCC1)/C(=C/c1ccc(F)cc1)NC(=O)c1ccccc1	8.6
COCCN(C(=O)c1ccco1)c1nnc(-c2ccc(OC)c(OC)c2)s1	6.0
CCOC(=O)C1(Cc2cccc(F)c2)CCN(C(=O)c2cnc(C)cn2)CC1	6.3
O=C(Cn1nc(C(F)(F)F)c2c1CCC2)Nc1ccccc1C(F)(F)F	7.6
C[n+]1c2n(c3ccccc31)N=C(c1ccc(-c3ccccc3)cc1)CS2	-6.7
CC(=O)c1c(COC(=O)c2ccc(F)cc2)nc2ccccc2[n+]1[O-]	15.3
Cc1ccc(S(=O)(=O)N/N=C/c2cccc3nccnc23)cc1	16.3
CCN1CCN(c2ccc(S(=O)(=O)N3CCCC3)cn2)CC1	23.2
CSc1sc(C(=O)N(C)C)cc1S(=O)(=O)C(C)C	16.3
CCOC(=O)c1sc(N/N=C/c2ccccc2)nc1C	9.8
C/C(=N\NC(=O)C1CC1)c1ccc(N2CCOCC2)cc1	16.4
CC(C)(C)c1ccc(C(=O)Nc2ccc(F)cc2)s1	24.5
CCC(=O)NCCCCCCCCCNC(=O)CC	9.1
CN(C)c1nccc(NCc2ccccc2)c1C#N	29.9
CCOc1ccc(NC(=S)N(C)C)cc1	3.6

Additional structures.
SMILES	Calb biofilm kill
O=C(Cc1ccccc1)NNC(=S)NC(=O)c1cccnc1	15.8
CCN(c1ccccc1)S(=O)(=O)c1ccc(Cl)c(NC(=O)CN(C)C2CCN(C)CC2)c1	24.8
O=c1c2sc3ccccc3c2[nH]c(=S)n1CCN1CCOCC1	10.6
CCCn1ncc(CN2CCC(Cc3cccc(F)c3)(C(=O)OCC)CC2)c1C	10.7
Nc1ccccc1C#CCCCCO	-3.5
CCOC(=O)c1c(NC(=O)C2CCCCC2C(=O)O)sc2c1CCCCC2 (centres undefined)	17.1
Cc1c(C(=O)Nc2ccc(F)cc2)c2ccccn2c1CCc1ccncc1	5.5
O=C(O)c1ccccc1-n1c2ccccc2c2ccccc21	24.5
CCOC(=O)NC(=O)CSc1nc2ccc([N+](=O)[O-])cc2[nH]1	15.7
COc1ccccc1N1CCN(C(=O)c2oc3ccc(F)cc3c2C)CC1	21.3
O=C(CCc1ccc(Oc2cc([N+](=O)[O-])cc([N+](=O)[O-])c2)cc1)Nc1cccc(Cl)c1	9.0
COc1cccc(-c2csc(NC3OC(=O)c4c3ccc(OC)c4OC)n2)c1 (centres undefined)	12.8
O=C1C(C2=NC(c3ccccn3)C3C(=O)N(c4ccccc4)C(=O)C23)=C(O)c2ccccc21 (centres undefined)	19.9
Cc1noc(C)c1C(=O)N1CCN(c2ccc(OCc3ccccc3)cc2)CC1	17.9
CC1=NN(c2nc(-c3ccc(C)cc3)cs2)C(=O)C1N=Nc1ccc(C(N)=O)cc1 (centres undefined)	4.2
CC(C)Nc1nc(-c2ccncc2)nc(-c2ccc(Cl)cc2)c1C#N	17.3
CC#CC[N+](C)(C)CC(=O)c1ccccc1	-3.7
Cc1cccc(NC(=S)NCCN2CCOCC2)c1	13.7
C=CCn1c(SCC(=O)Nc2ccc(-c3nc4ccc(C)cc4s3)cc2)nnc1-c1ccncc1	4.7
COc1cccc(C2C3=C(CC(C)(C)CC3=O)Nc3n[nH]c(C)c32)c1 (centres undefined)	7.4
CN1C=CC(=CC=C2C=CC(=O)C=C2)C=C1	19.1
CCn1c(CNC(=O)c2ccccc2F)nnc1SCc1nc2ccccc2c(=O)[nH]1	8.5
CN(CC(O)COc1ccccc1F)C1CCCCC1 (centres undefined)	-8.0
Cc1ccc2nc(-c3ccc(N4C(=O)CC(N5CCC(C(N)=O)CC5)C4=O)cc3)sc2c1 (centres undefined)	9.8
O=[N+]([O-])c1ccccc1/C=C/C=N/N1CCCCC1	13.8
Additional results:
SMILES	Calb biofilm kill
CNC(=S)NNC(=O)COc1cccc(C)c1C	9.9
CCOC(Cn1cc(C)c(=O)[nH]c1=O)OCC	14.0
CC(C)n1cc(/C(N)=N/O)c(=O)n(Cc2ccccc2)c1=O	20.9
Cc1ccccc1CC1(CO)CCCN(C(=O)c2cc(Cl)ccc2F)C1 (centres undefined)	8.5
COc1ccc(C(=O)NNC(=O)c2cc3cc(OC)ccc3oc2=O)cc1	9.0
Cc1ccc(S(=O)(=O)NC(C)C(c2cccs2)N2CCOCC2)cc1 (centres undefined)	11.6
O=C(NC(Cc1ccccc1)C(=O)O)/C(=C/c1ccccc1)NC(=O)c1ccccc1 (centres undefined)	17.8
Oc1ccccc1Nc1nc(NCc2ccccc2)c2ccccc2n1	13.3
O=c1cc(-c2ccc(O)cc2)oc2ccc(O)cc12	9.5
COc1ccc(C(=O)NC(C(=O)NCC(=O)Nc2c(C)cccc2C)C(C)C)cc1 (centres undefined)	22.6
N#C/C(=C\c1cn[nH]c1-c1ccc(Cl)cc1)C(=O)NC1CC1	15.0
N/C(=N\OC(=O)/C=C/c1ccccc1Cl)c1ccncc1	16.9
S=C(NCc1ccccc1)Nc1ccc2cn[nH]c2c1	21.5
Cc1cccc(NC(=S)N2CCN(c3ccccc3)CC2)c1	5.7
CN(C)S(=O)(=O)c1cccc(NC(=O)c2ccc(Sc3nncn3C)c([N+](=O)[O-])c2)c1	10.8
O=C(NNc1nc2c(F)cccc2s1)c1ccccc1	11.0
COc1ccc2c(c1)c1ncn(CC3CCCO3)c(=O)c1n2C (centres undefined)	12.8
COc1ccc(-c2nnc(NC(=O)c3ccccc3C)o2)cc1	9.6
Cc1cccc(NC(=O)CN2C(=O)S/C(=C\c3cccn3-c3cccc(C(=O)O)c3)C2=O)c1	8.8
CSc1ccccc1C(=O)N1CCCCC1	12.3
CCNc1ccc(C(=O)OCC(=O)NCc2ccc(C)cc2)cc1[N+](=O)[O-]	24.7
N#Cc1cc[n+](CC(=O)c2ccc(NC(=O)c3ccccc3)cc2)cc1	16.9
CCN1CCN(CCCNC(=O)C2c3ccccc3C(=O)N(c3ccc(OC)cc3)C2c2ccc(OC)cc2)CC1 (centres undefined)	-10.7
O=C(Nc1ccccc1F)C1(c2ccccc2)CC1(Cl)Cl (centres undefined)	14.0
N#Cc1cccc(C#N)c1Oc1ccc(N)cc1	24.3
More compounds follow:
SMILES	Calb biofilm kill
CN1N=C2c3ccccc3CCC2C1c1ccc(C(F)(F)F)cc1 (centres undefined)	22.5
COc1cc(C(=O)NC(=S)N(CCc2ccccc2)CCc2ccccc2)cc(OC)c1OC	3.5
CC(=O)c1c(C)[nH]c(C2=NNC(=NC(C)(C)C)SC2)c1C	13.9
Cc1cccc(NC(=O)CSc2nnc(Cc3ccccc3)o2)c1	0.7
Cc1occc1C(=O)N/N=C/C(Br)=C/c1ccccc1	2.6
Cc1cccnc1NC(=O)C1COc2ccccc2O1 (centres undefined)	9.2
CC(O)c1nc2ccccc2n1CC(=O)Nc1ccc(F)cc1Cl (centres undefined)	11.5
CCOC(=O)C1C(C)=C(Nc2ccc(OC)cc2)C(=O)N1c1ccc(OC)cc1 (centres undefined)	9.5
O=C(NC1CCN(Cc2ccccc2)CC1)c1cccc(S(=O)(=O)Nc2cc(C(F)(F)F)ccc2Cl)c1	-3.2
COCCNC(=O)C1(C)C=CC2(CCCCC2)N1C(=O)c1ccccc1 (centres undefined)	19.9
Cc1cccc(C2c3[nH]c4ccccc4c3CCN2C(=O)c2cc(CC(C)C)[nH]c(=O)n2)n1 (centres undefined)	15.9
O=C(O)CC(NNC(=O)c1ccccc1)C(=O)Nc1ccc([N+](=O)[O-])cc1 (centres undefined)	10.2
CCC(C)(C)NC(=O)/C=C/c1cccs1	-5.8
CCOc1ccc(C(=O)NCC(=O)OCC(=O)c2ccc3c(c2)-c2ccccc2C3)cc1	0.8
Cc1nnsc1Sc1ccccc1	12.2
Cc1c(C(=O)N2CCN(Cc3ccc4c(c3)OCO4)CC2)cccc1[N+](=O)[O-]	7.1
COC(=O)c1sccc1NC(=O)COc1ccc(Cl)cc1Cl	15.4
O=C(Nc1cccc(O)c1)C(Cc1ccccc1)N1C(=O)c2cccc3cccc(c23)C1=O (centres undefined)	24.8
COc1ccc(/C=C/C(=O)O)cc1S(=O)(=O)NCc1ccco1	26.1
O=C(/C=C/c1cccc(Cl)c1)OCc1cn2cc(Cl)ccc2n1	11.0
NNC(=O)c1ccc(CN2C(=O)c3cccc4cccc2c34)cc1	0.3
OCCC#Cc1ccc(CN2CCN(Cc3ccccc3)C(CCO)C2)cc1 (centres undefined)	9.2
Cc1ccc(C)c(N2CCN(CCCNC(=O)Cn3cccc3C(=O)c3ccccc3)CC2)c1	2.4
COc1cc(/C=C(/NC(=O)c2ccccc2)C(=O)N2CCN(C)CC2)c([N+](=O)[O-])cc1OC	6.6
CN(CCC#N)C(=S)NC(=O)c1ccc(S(=O)(=O)N2CCOCC2)cc1	8.1
CCCSc1ccc(-c2nn(-c3ccccc3)cc2/C=C(/C#N)C(=O)NCCCOC)cc1	1.1
Cc1ccc(NC(=O)Nc2nnc(CSCCOc3ccc(Cl)cc3)s2)cc1	11.2
Cc1cc(NC(=O)c2c(-c3c(Cl)cccc3Cl)noc2C)n(C)n1	21.4
COc1ccc(C(=O)NCCc2nnc3ccc(SCC(=O)Nc4cc(C)on4)nn23)cc1	17.0

Some values from the list:
Calb biofilm kill, `CCOC(=O)C1C(C)=C(Nc2ccc(OC)cc2)C(=O)N1c1ccc(OC)cc1` (centres undefined) is entered as 9.5
Calb biofilm kill, `Cc1nnsc1Sc1ccccc1` is entered as 12.2
